Lassa entry inh – Lassa virus entry inhibition. 300,000 compounds, 1.2% hits. Lassa virus pseudotype entry inhibition, cell reporter; control for the full effect not named in the record. AID 540256. Potency, µM (series often up to 37.9 µM), for the others: at the highest dose activity change, negative = inhibition, actives largely listed as inhibitors; active means well fitted inhibition curve with a large enough effect; inconclusive means small, poorly fitted or top-dose-only effect, or effect the other way; inactive means flat fitted curve, though single readings scatter; tested in HEK293 cells; also: % is scaled to controls: 0 for no effect and ±100 for the full control effect; nearly all actives have a fitted effect of over 50% in size; luciferase read-out
Cruzain noTriton – blocks cruzain activity in detergent-free assay; purified cruzain, Z-FR-AMC fluorescence, no detergent; P25779; 200,000 compounds, 2.3% hits; AID 1476; Potency, µM, for the others: max response, negative = inhibition, actives largely listed as inhibitors; active = well fitted curve in the direction sought with a large enough effect; inconclusive = small, poorly fitted or top-dose-only effect, or another doubt; inactive = no such curve, though single readings can be large; an effect the other way counts as inactive or inconclusive;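 also: plate controls were enzyme without inhibitor for no effect and buffer without enzyme for full effect; nearly all actives have a fitted effect of over 40% in size; top concentration of the series not given in the record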
Target sequence (P25779 123-467 limits assumed): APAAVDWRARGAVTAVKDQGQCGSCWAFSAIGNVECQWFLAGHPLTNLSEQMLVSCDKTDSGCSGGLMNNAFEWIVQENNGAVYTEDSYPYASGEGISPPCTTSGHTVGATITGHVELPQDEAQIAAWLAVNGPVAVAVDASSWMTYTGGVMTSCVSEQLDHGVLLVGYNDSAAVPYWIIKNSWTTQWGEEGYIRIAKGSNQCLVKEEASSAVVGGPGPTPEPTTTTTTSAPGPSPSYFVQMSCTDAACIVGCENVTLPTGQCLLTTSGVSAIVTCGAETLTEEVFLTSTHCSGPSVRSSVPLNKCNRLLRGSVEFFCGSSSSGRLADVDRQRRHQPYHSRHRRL
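Purified cruzain at 1.5 nM, pre-incubated 15 min with compound at room temperature in 100 mM sodium acetate pH 5.5, 5 mM DTT, 0.00005% Triton X-100. Reaction started with 2 uM Z-FR-AMC; AMC fluorescence increase over 60 s gives rate.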
RE007 growth inh – less growth of the S. pombe RE007 Vpr strain. S. pombe RE007 Vpr strain, BacTiter-Glo ATP luminescence, 24 h; control for the full effect not named in the record. Potency, µM (doses to about 92.2 µM), inactives show at the highest dose activity change, negative = less growth. 360,000 compounds, 0.21% hits. AID 651644; active = well fitted falling curve with a large enough effect; inconclusive = small, poorly fitted or top-dose-only effect; inactive = no such curve, though single readings can be large or run the other way;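 also: % is scaled to controls: 0 for no effect and ±100 for the full control effect; nearly all actives have a fitted effect of over 50% in size; the assay follows cell death caused by Vpr and the record does not say whether a fall means rescue or toxicity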
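Fission yeast strain RE007, carrying one chromosomally integrated HIV-1 vpr copy, was seeded at OD 0.01 in PMG+AL medium with 23 nL pinned compound. After 24 h at 30 °C and 99% humidity, viability was read by BacTiter-Glo luminescence.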
Cruzain Triton – cruzain (T. cruzi) inhibition with detergent; purified cruzain, Z-FR-AMC fluorescence, 0.01% Triton; Potency, µM, inactives show max response, negative = inhibition, most hits filed as inhibitors; 200,000 compounds, 0.43% hits; active = well fitted curve in the direction sought with a large enough effect; inconclusive = small, poorly fitted or top-dose-only effect, or another doubt; inactive = no such curve, though single readings can be large; an effect the other way counts as inactive or inconclusive;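 also: plate controls were neutral wells for no effect and buffer without enzyme for full effect; nearly all actives have a fitted effect of over 40% in size; top concentration of the series not given in the record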
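Read-out: AMC fluorescence (360 nm excitation, 450 nm emission), four reads over 2 min, first-to-third difference used. Conditions: cruzain 1.5 nM, Z-FR-AMC 2 uM, pH 5.5 acetate, 5 mM DTT, 0.01% Triton X-100.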
SARS PLpro yeast – SARS-CoV PLP inhibition in yeast; S. cerevisiae expressing SARS-CoV PLpro, growth rescue; control for the full effect not named in the record; Potency, µM (doses to about 32.9 µM), inactives show at the highest dose activity, positive = growth rescue; 330,000 compounds, 0.19% hits; AID 485353; also: 0% is about no effect; nearly all actives have a fitted effect of over 55% in size; growth read by luminescence after 48 h
NS1 function inh – blocks influenza NS1 protein function | S. cerevisiae slowed by influenza A NS1, growth recovery by OD600 | Potency, µM (highest dose often 46.1 µM), for the others: at the top dose activity, positive = more growth | 270,000 compounds, 0.4% hits; also: actives are rising curves; nearly all actives have a fitted effect of over 50% in size
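Growth recovery, yeast-based: influenza A NS1 expressed in S. cerevisiae causes slow growth, and suppressors are detected by OD600. The parent strain without NS1 is used as positive control.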
StopGo reporter – FMDV 2A StopGo reporter, luciferase signal; 410,000 compounds, 1.2% hits; Potency, µM (series often up to 57.9 µM), for inactives: top-dose signal change, negative = less light; human cells with a luciferase reporter of 2A StopGo recoding; control for the full effect not named in the record; active = well fitted falling curve with a large enough effect; inconclusive = small, poorly fitted or top-dose-only effect; inactive = no such curve, though single readings can be large or run the other way; tested in HEK293T cells; also: % is scaled to controls: 0 for no effect and ±100 for the full control effect; nearly all actives have a fitted effect of over 45% in size; luciferase light after 4 h
MARV entry inh – blocks Marburg virus binding to or entry into cells | Marburg virus pseudotyped entry inhibition, cell reporter; control for the full effect not named in the record; about a third of the inactives were read at about 46 µM | Potency, µM (highest dose often 37.8 µM), inactives show at the highest dose activity change, negative = inhibition, usual class: inhibitors | 300,000 compounds, 1.8% hits | AID 540276; active = well fitted inhibition curve with a large enough effect; inconclusive = small, poorly fitted or top-dose-only effect, or effect the other way; inactive = flat fitted curve, though single readings scatter; tested in HEK293 cells; about a fifth of its hits are not listed in these tables; also: % is scaled to controls: 0 for no effect and ±100 for the full control effect; luciferase read-out
Numbers without * were called inactive; u = inconclusive; x = not tested or not shown; & = joins results of further samples; [ ] = remark or other dose. Unless noted, calls follow the shape of the dose curve; as a rule, active means well fitted rising curve with a large enough effect; inconclusive means small, poorly fitted or top-dose-only effect; inactive means no such curve, though single readings can be large or run the other way. Potency is read from the fitted curve at half-maximal effect. The order is random (roughly 4.5% active in at least one column).

#	mol	Cruzain noTriton	StopGo reporter	MARV entry inh	NS1 function inh	Cruzain Triton	SARS PLpro yeast	Lassa entry inh	RE007 growth inh
1	COc1ccccc1N(C)S(=O)(=O)c1ccc(C(=O)OCC(=O)Nc2cc(C)on2)cc1	x	12%	9%	x	x	0%	-11%	2%
2	CCCCC(c1nnnn1CCOC)N1CCN(C(=O)c2ccco2)CC1 (centres undefined)	-1%	2%	u	-2%	-0.9%	5%	1%	-8%
3	Cc1ccc(-c2nn(-c3ccccc3)cc2/C=N/NC(=O)c2ccc(Br)o2)cc1	u	28µM*	u	-9%	1.4%	-2%	-24%	12%
4	CC(C)N1CCC(N2CCN(Cc3ccc(C#CC(C)(C)O)s3)CC2CCO)CC1 (centres undefined)	x	7%	-4%[46.1 µM]	0%	x	0%	-10%[46.1 µM]	4%
5	Cc1c(C(=O)OCCOc2ccccc2)[nH]c2c1C(=O)CC(c1ccc(C(C)(C)C)cc1)C2 (centres undefined)	-17%	-25%	6%[46.1 µM]	x	-2.4%	x	-18%[46.1 µM]	x
6	CC(C)c1cc(C(=O)NCc2cccnc2)no1	2%	10%	2%	-4%	1.1%	u	16%	11%
7	COCCNC(=O)Cn1c(=O)n(CCC(=O)NCCc2ccccc2)c(=O)c2ccccc21	-4%	15%	u	0%	0.7%	25%	7%&-13%	2%
8	CC1(O)CC(=O)N(c2ccccc2)O1 (centres undefined)	3%	3%	2%	-64%	3.2%	-5%	-2%	15%[3.69 µM]
9	Cc1ccc(Oc2ncccc2CO)cc1	x	5%	17%[46.1 µM]	x	x	2%	13%	18%
10	CCC12CN3CCN(CC(C3)/C1=N\NC(=O)Nc1ccccc1)C2	15%	3%	6%	12%	-3.1%	-2%	3%	3%
11	Cc1cc(C)cc(NC(=O)C2CCCN2/C=C/C(=O)C(F)(F)F)c1 (centres undefined)	-8%	-7%	0%	4%	1.6%	5%	-2%	2%
12	CCOC(=O)c1c(CN(C)C)n(-c2ccccc2)c2cc(Br)c(O)cc12	x	-1%	u	-6%	x	1%	x	3%
13	O=C(Nc1c[nH]c(=O)[nH]c1=O)OCc1ccccc1	x	4%	28%[46.1 µM]	x	x	x	25%[46.1 µM]	-3%
14	c1ccc2c(c1)COC(CNC1CCCCC1)OC2	x	2%	7%	-2%	x	1%	0%	4%
15	CC1CCCCC1NC(=O)CSCC(=O)O (centres undefined)	2%	-13%	17%	19%	1.3%	10%	1%	0%
16	Cc1nc2cc(N3CCCCC3)c(NC(=O)c3ccncc3)cc2c(=O)n1Cc1ccc(Cl)cc1	21%	x	x	3%	1.5%	6%	x	x
17	CCN(CC)S(=O)(=O)c1ccc2c(c1)N(CC(=O)NCCc1ccc(S(N)(=O)=O)cc1)C(=O)CO2	x	4%	-10%[46.1 µM]	x	x	0%	-8%	-3%
18	O=C(Nc1ccc(C(F)(F)F)cc1)OC1CN2CCC1CC2 (centres undefined)	x	15%	-24%[46.1 µM]	-1%	x	-1%	-4%	17%
19	O=C(CCn1nc(-c2ccc(Cl)cc2)ccc1=O)NCc1cccnc1	2%	-12%	3%	-3%	-0.4%	2%	-16%	-14%
20	CCOC(=O)c1c(C)nc2c(c1-c1cc(OC)ccc1OC)C(=O)c1ccccc1-2	20%	4%	-3%	-6%	-4.1%	1%	-7%	14%[3.69 µM]
21	Nc1nonc1-c1noc(N2CCCCC2)n1	14%	2%	u	-6%	2.8%	0%	1%	u
22	CCc1cccc(OCCn2nc(C(=O)O)c3ccccc3c2=O)c1	x	u	u	x	x	-1%	u	27%
23	COc1ccc(-c2nnn(Cc3nn[nH]n3)n2)cc1OC	-3%	-2%	-11%	-7%	4.3%	5%	0%	-10%
24	COc1cc(C(=O)Nc2ccncc2)cc(OC)c1OC	-9%	x	-13%	0%	3.9%	-7%	-4%	-3%

Just MARV entry inh and SARS PLpro yeast, for 6 of the compounds above:
nr | smiles | MARV entry inh | SARS PLpro yeast
5 | Cc1c(C(=O)OCCOc2ccccc2)[nH]c2c1C(=O)CC(c1ccc(C(C)(C)C)cc1)C2 (centres undefined) | 6%[46.1 µM] | x
6 | CC(C)c1cc(C(=O)NCc2cccnc2)no1 | 2% | u
7 | COCCNC(=O)Cn1c(=O)n(CCC(=O)NCCc2ccccc2)c(=O)c2ccccc21 | u | 25%
8 | CC1(O)CC(=O)N(c2ccccc2)O1 (centres undefined) | 2% | -5%
9 | Cc1ccc(Oc2ncccc2CO)cc1 | 17%[46.1 µM] | 2%
10 | CCC12CN3CCN(CC(C3)/C1=N\NC(=O)Nc1ccccc1)C2 | 6% | -2%

(more compounds)
#	mol	Cruzain noTriton	StopGo reporter	MARV entry inh	NS1 function inh	Cruzain Triton	SARS PLpro yeast	Lassa entry inh	RE007 growth inh
25	COC(=O)CCC(=O)NNC(=O)C1CC1(c1ccccc1)c1ccccc1 (centres undefined)	x	-11%	x	-1%	x	1%	x	-4%
26	COc1cccc(NC(=O)C2CCN(C(=O)[C@@H]3Cc4ccccc4CN3)CC2)c1	x	-8%	x	-1%	x	-2%	x	5%
27	COCCNC(=O)CN(Cc1ccccc1)S(=O)(=O)c1ccc2nc(C)sc2c1	x	8%	x	-3%	x	-1%	x	-8%
28	Cc1ccc(S(=O)(=O)N2CCCC(C(=O)Nc3ccc(C(=O)O)cc3)C2)cc1Cl (centres undefined)	x	18%	-11%	x	x	0%	12%[46.1 µM]	-6%
29	CCN(CC)C(=O)CSc1nc2sc3c(c2c(=O)n1CCOC)CCC3	x	-11%	15%[46.1 µM]	2%	x	-1%	17%[46.1 µM]	8%
30	N/C(Cc1ccc(Cl)c(Cl)c1)=N\OC(=O)c1ccc(Br)o1	x	-6%	3%[46.1 µM]	-60%	x	-6%	-19%	0%
31	CCc1cccc(CC)c1NC(=O)COC(=O)c1ccc2c(c1)S(=O)(=O)c1ccccc1C2=O	7%	-30%	12%	-3%	-4.7%	-1%	u	19%
32	Cc1cc(C)c(NC(=O)CNC(=O)COC(=O)C2CCN(c3ccc(C(F)(F)F)cn3)CC2)c(C)c1	x	10%	u	-16%	x	-2%	16%	1%
33	Cc1ccc(C)c(NC(=O)c2sc(Cl)nc2C)c1	-5%	4%	12%	6%	1.4%	-2%	0%	4%
34	COc1ccccc1-c1nc(SCC(=O)NCc2ccccc2)c2c(=O)n(C)c(=O)n(C)c2n1	6%	-16%	x	x	3.1%	x	-3%[46.1 µM]	x
35	CCOC(=O)c1c(C)[nH]c(C(=O)COC(=O)CNC(=O)c2ccccc2Cl)c1C	13µM*	49%[activator]	17%	-4%	11µM*	9%	13%	-13%
36	O=C(CCSCCC(=O)NN=Cc1ccc(F)cc1)NN=Cc1ccc(F)cc1	x	-21%	9%[46.1 µM]	x	x	x	4%[46.1 µM]	-7%
37	CCc1c(C)nc(N2CCN(c3ccccc3F)CC2)[nH]c1=O	x	-9%	x	5%	x	3%	x	2%
38	O=S(=O)(c1ccc(Cl)cc1Cl)N1CCCC1c1cccnc1 (centres undefined)	x	-8%	15%[46.1 µM]	-51%	x	-4%	-3%	-5%
39	CCOc1ccccc1NC(=O)CCNS(=O)(=O)c1ccc(NC(C)=O)cc1	x	1%	x	2%	x	0%	x	0%
40	CCC(C)NC(=O)Cn1c(=O)n(Cc2ccc(C(=O)NCc3ccccc3OC)cc2)c(=O)c2ccccc21 (centres undefined)	7%	-14%	u	x	-3.0%	x	-2%[46.1 µM]	x
41	CC(=O)CC(C)(C)n1nnc(-c2ccccc2)n1	-5%	12%	19%	-4%	-3.8%	-1%	15%	3%
42	O=C(CCNC(=O)C1CCN(S(=O)(=O)c2ccccc2)CC1)NCc1ccc(Cl)cc1Cl	x	u	x	-24%	x	6%	x	-12%
43	Cc1ccc(C(=O)CSc2nnc(-c3ccccc3N)n2C)cc1C	-11%	-29%	-22%	2%	-13%	-1%	-6%	2%
44	COc1ccc(C(=O)C(Sc2nnc(C)c(=O)[nH]2)c2ccc(OC)cc2)cc1 (centres undefined)	x	-18%	x	2%	x	1%	x	-8%
45	O=c1c2ccccc2oc2nc(C3CCCCC3)n(Cc3ccco3)c(=O)c12	-25%	-28%	-13%	0%	2.6%	0%	-14%	-4%
46	O=C1CCC(C(=O)NCc2ccc3c(c2)OCO3)N1 (centres undefined)	x	-12%	2%[46.1 µM]	5%	x	0%	-6%	3%
47	CCOC(=O)c1cc(-c2ccc(OC)cc2OC)nn1-c1ccc(C(=O)O)cc1	x	-5%	x	3%	x	1%	x	-9%
48	CCC(=O)c1ccc(OCC(=O)Nc2ccc(N3CCOCC3)cc2N2CCOCC2)cc1	x	9%	x	17%	x	-1%	x	-3%
49	CN(C)c1ccc(CNS(=O)(=O)c2ccc3[nH]c4c(c3c2)CCCCC4)cc1	u	3%	x	x	-13%	x	u	x
50	C=C1CCC[C@]2(C)C[C@H]3OC(=O)C(CNC(C)(CO)CO)[C@H]3CC12 (some centres undefined)	x	-21%	u	1%	x	0%	9%	-20%
51	CN(CCOc1ccc(Cl)cc1)C(=O)CN1C(=O)NC2(CCCCC2)C1=O	x	u	-2%	x	x	-2%	-28%	-6%
52	COc1ccc(CNC(=O)c2ccc(NC(=O)CC3SC(N4CCCC4)=NC3=O)cc2)cc1 (centres undefined)	24%	-12%	-2%	-3%	-0.1%	0%	-2%	-1%
53	COc1ccccc1CCNC(=O)c1cccc(S(=O)(=O)NCc2ccccc2)c1	x	15%	-16%	x	x	x	-28%	-6%
54	Cc1cc(OC(C)C(=O)NCC2CCCO2)cc(C)c1Cl (centres undefined)	x	-18%	x	-18%	x	2%	x	-10%

From no. 1 as far as 2, copied from above:
#	mol	Cruzain noTriton	StopGo reporter	MARV entry inh	NS1 function inh	Cruzain Triton	SARS PLpro yeast	Lassa entry inh	RE007 growth inh
1	COc1ccccc1N(C)S(=O)(=O)c1ccc(C(=O)OCC(=O)Nc2cc(C)on2)cc1	x	12%	9%	x	x	0%	-11%	2%
2	CCCCC(c1nnnn1CCOC)N1CCN(C(=O)c2ccco2)CC1 (centres undefined)	-1%	2%	u	-2%	-0.9%	5%	1%	-8%
